# UCH37 DUB inh: inhibitors of human UCH37 deubiquitinase, primary screen, biochemical, Ub-AMC cleavage, fluorescence; 330,000 compounds, 0.33% hits; purified proteasome/UCH37; inhibition, % (concentration not given with the values); AID 588478, 2011; Ubiquitin carboxyl-terminal hydrolase isozyme L5 (Homo sapiens), Q9Y5K5;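 active means mean of two replicates above 20%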;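 further: 0% = compound-free wells with enzyme and 100% = wells lacking proteasome; stock transfer was 100 nL into about 20 µL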
# Target sequence (Q9Y5K5 whole entry, looked up): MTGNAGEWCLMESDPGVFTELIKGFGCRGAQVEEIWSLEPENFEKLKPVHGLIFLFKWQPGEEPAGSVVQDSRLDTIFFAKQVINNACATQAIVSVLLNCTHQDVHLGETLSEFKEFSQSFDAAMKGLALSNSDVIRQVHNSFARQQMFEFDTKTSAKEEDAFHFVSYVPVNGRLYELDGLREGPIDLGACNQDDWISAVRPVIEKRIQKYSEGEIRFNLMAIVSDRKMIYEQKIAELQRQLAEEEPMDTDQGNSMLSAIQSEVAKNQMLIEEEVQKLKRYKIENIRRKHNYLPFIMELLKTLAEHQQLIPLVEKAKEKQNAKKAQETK
#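 assay system = human UCH37 enzyme supplied as purified proteasome complex | amount = proteasome at 0.15 nM in the dispensed enzyme solution | schedule = 30 min compound-proteasome preincubation then 25 min substrate reaction, room temperature | measured by = fluorescence, ex 355 nm, em 460 nm | benchmarks = no-proteasome wells (full inhibition) and compound-free wells (no inhibition)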
# E coli growth: E. coli growth inhibition, primary screen, OD600 | Escherichia coli growth, 23 h; stronger effect = lower value | OD600 absorbance (no concentration beside the values) | 330,000 compounds, 0.21% hits | AID 1053175, 2014;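 active means OD600 absorbance below the run mean of sample wells minus 3.6 SD, in any replicate, cut at about 0.56 in these data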;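 further: stock transfer was 300 nL into about 60 µL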
# LANA-H2A inh: blockers of LANA interaction with H2A/H2B – biochemical, FP readout, HTS, primary screen. cell-free LANA-H2A/H2B peptide, fluorescence polarization. Protein LANA1 (Human herpesvirus 8 type P (isolate GK18)), Q9QR71. inhibition, % (concentration not given with the values). AID 2629, 2010. 320,000 compounds, 0.6% hits; in the data active means inhibition mostly above about 10%, no sharp cut-off; inactive means mostly below about 6.7%;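 further: stock transfer was 7.5 nL into about 10 µL; 0% = median of vehicle wells and 100% = median of positive control wells; one replicate is shown; the record names a cut of 25% in any replicate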
# FGF22 binding: binders of human FGF22 protein, primary screen, FGF22 synaptogenesis inhibitor project, biophysical, thermal shift, single point; recombinant FGF22 thermal shift, SYPRO orange fluorescence; percent of sucrose octasulfate shift, DMSO zero; calls only at 9.99 µM; 340,000 compounds, 1.5% hits;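 active means melting point raised past a set limit in the mean and every replicate; three in four hits are not shown here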
# Target sequence (Q9HCT0 whole entry, looked up): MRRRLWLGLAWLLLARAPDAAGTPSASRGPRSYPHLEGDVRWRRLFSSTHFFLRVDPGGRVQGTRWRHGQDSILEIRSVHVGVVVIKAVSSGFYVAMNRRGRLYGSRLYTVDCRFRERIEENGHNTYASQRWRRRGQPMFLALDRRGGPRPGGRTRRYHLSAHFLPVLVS
# B2AR ag: beta2AR agonists driving receptor internalization, primary screen, cell-based, FAP fluorogen, flow cytometry; Beta-2 adrenergic receptor (Homo sapiens), P07550; Am2.2-beta2AR cells; reference of the scale not given here; response, % (no concentration beside the values); AID 504454, 2011; 340,000 compounds, 0.43% hits;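 active means response above a set limit, near 3 SD of response in nonfluorescent compounds, cut at about 42% in these data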;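 further: stock transfer was 100 nL into about 11 µL; a reference agonist was the positive control; negative values mostly stem from fluorescent compounds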
# ALR H2O2 inh: inhibitors of human ALR sulfhydryl oxidase, primary screen, biochemical, H2O2 detection, HRP-luminol luminescence, single point; inhibition, % (no concentration beside the values); 290,000 compounds, 3.8% hits; purified ALR, DTT oxidation; AID 485317, 2010;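 active means mean and each replicate at 75% or more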;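 further: stock transfer was 7.5 nL into about 7.5 µL; 0% = neutral wells and 100% = wells with inactivated enzyme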
# Target sequence (P55789 whole entry, looked up): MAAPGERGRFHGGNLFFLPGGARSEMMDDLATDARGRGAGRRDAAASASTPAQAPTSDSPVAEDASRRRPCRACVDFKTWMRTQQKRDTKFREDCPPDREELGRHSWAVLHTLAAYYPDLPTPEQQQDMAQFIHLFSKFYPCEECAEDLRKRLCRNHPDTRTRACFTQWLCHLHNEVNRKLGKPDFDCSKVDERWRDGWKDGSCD
# HNF4A DNA FP: change in binding of human HNF4A to DNA, primary screen, biochemical, fluorescence polarization, FITC-DNA. Hepatocyte nuclear factor 4-alpha (Homo sapiens), P41235. 1 h. activity change, % at 10 µM. 360,000 compounds, 0.3% hits. AID 1224865, 2016; in the data active means activity change above about 30%, passing the limit was not always enough;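 further: controls were the assay level and a saturating level of protein; the project sought stronger binding though the title names inhibitors; some compounds called inactive have numbers as strong as hits; positive values seem to mean higher polarization but the record does not say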
# * hit, by the source's call; i = inactive; nt = no result given. This is a subset. The share of hits here may be higher or lower than overall.
SMILES,UCH37 DUB inh,E coli growth,LANA-H2A inh,FGF22 binding,B2AR ag,ALR H2O2 inh,HNF4A DNA FP
CCCSc1ccc([C@@H]2[C@H]3C(=O)N(CC)C(=O)[C@H]3[C@]3(C(=O)OC)CCCN23)cc1OC,4.3,nt,-1.1,i,-3,-6,3.3
COCCCn1c(SCC(=O)N2CCOCC2)nc2cc(Cl)ccc2c1=O,2.7,0.68,1.1,i,2,nt,1.6
Cc1ccc(-c2nc(=O)[nH]c3ccccc23)cc1,-100,0.68,1.8,i,15,7,-0.1
CCOC(=O)CN1C(=O)C(=O)c2cc(C)ccc21,4.6,0.66,1.5,nt,-4,-18,-1.9
O=C(CCc1nc2ccccc2s1)N1CCN(c2ccccc2)CC1,2.4,0.65,-1.8,i,4,31,-2.3
CCOc1ccc(CC(=O)NNC(=S)Nc2ccccc2)cc1Br,0.4,0.73,-4.7,nt,4,71,-1.6
COc1ccc(S(=O)(=O)NNc2nc(C)cc(C)n2)cc1Br,nt,nt,1.5,i,10,-17,2.4
N#Cc1c2c(c(Nc3ccccc3)n3c1nc1ccccc13)CCC2,-2.3,0.71,7.2,nt,-5,1,1.8
CCOC(=O)Nc1ccc(C(=O)Oc2ccccc2)c(O)c1,1.6,0.7,-3.7,i,-2,0,2.5
CCSC1=NC(C)(C)C=C(/C=C/c2ccc(Cl)cc2Cl)N1,4.0,0.76,-1.4,nt,6,45,5.1
N#Cc1cc(-c2ccccc2)nnc1Oc1ccccc1Cl,4.9,0.69,5.0,nt,57*,-9,2.3
CC(NC(=O)c1ccc(S(=O)(=O)N(C)C)cc1)c1ccccc1 (centres undefined),5.1,0.71,6.0,nt,-2,-8,-1.3
CC(C)[C@H](NC(=O)c1ccccc1)C(=O)NC1CCCCCCC1,2.3,0.68,0.2,i,-10,-3,2.4
COc1ccc(CCCC(=O)Nc2ccc(F)cc2)cc1,3.0,0.66,-2.3,i,1,0,-5.5
C=CCN(c1ccccc1)S(=O)(=O)c1cccc(C(=O)N(CC)CC(=O)Nc2c(F)cccc2F)c1,-0.1,0.67,-6.2,i,3,2,-0.9
Cc1cc(C)nc(NS(=O)(=O)c2ccc(N/C=C\C(=O)c3cccs3)cc2)n1,-12,0.69,1.2,i,3,19,-5.1
O=C(CCc1cn2ccccc2n1)NC1CCCc2c1cnn2-c1ccccc1F (centres undefined),-2.3,0.71,-3.4,i,-3,-4,-0.6
Cc1ccc(OCc2cc(C(=O)N(C)CCn3ccnc3C)no2)cc1C,5.8,0.72,-0.3,i,2,-1,5.8
CCc1nc2ccccc2n1Cc1ccccc1OC,3.0,0.74,4.9,nt,-7,-22,0.6
CCc1nc(N2CCN(C(=S)NCCCOC)CC2)c2c3c(sc2n1)CCCC3,5.2,0.64,-4.9,i,10,-8,-2.1
O=S(=O)(CCN1CCSCC1)c1ccc(Cl)cc1,2.0,0.67,-8.1,nt,-5,1,2.4
Cc1cc(C(=O)COc2ccccc2C(N)=O)c(C)n1C,2.4,0.72,-1.6,i,9,nt,-1.7
Cc1ccc(C(=O)NCc2ccco2)cc1S(=O)(=O)N1CCCCC1,0.3,0.66,-0.4,i,19,-1,0.1
Nc1nc(SCC(=O)NCc2ccco2)[nH]c(=O)c1-c1ccccc1,1.2,0.67,0.2,nt,13,2,-5.2
COc1cc(C(=O)NC(c2ccccc2)c2ccccc2)cc(OC)c1C,2.6,0.73,3.3,nt,4,4,-0.5

# Continued, overlapping the part above by 3 compounds.
SMILES,UCH37 DUB inh,E coli growth,LANA-H2A inh,FGF22 binding,B2AR ag,ALR H2O2 inh,HNF4A DNA FP
Cc1ccc(C(=O)NCc2ccco2)cc1S(=O)(=O)N1CCCCC1,0.3,0.66,-0.4,i,19,-1,0.1
Nc1nc(SCC(=O)NCc2ccco2)[nH]c(=O)c1-c1ccccc1,1.2,0.67,0.2,nt,13,2,-5.2
COc1cc(C(=O)NC(c2ccccc2)c2ccccc2)cc(OC)c1C,2.6,0.73,3.3,nt,4,4,-0.5
CCCCn1c(SCC(=O)NCc2ccccc2)nc2ccc(N3CCOCC3)cc2c1=O,-97,0.74,-2.1,nt,-1,-24,-5.5
COc1ccc(CNC(=O)COC(=O)c2n[nH]c3ccccc23)cc1OC,1.8,0.61,-1.3,nt,20,-9,0.7
O=C(COc1ccccc1[N+](=O)[O-])NCCC1=CCCCC1,6.4,0.67,-3.4,nt,-14,3,1.9
CCN(CC(=O)Nc1cc(Cl)ccc1C)C(=O)C1CCCCC1,nt,nt,-0.2,i,-4,-2,2.0
COc1ccc(Cl)cc1NC(=O)N1CCN(S(C)(=O)=O)CC1,-2.6,0.63,-0.2,nt,-5,-22,2.6
CCNC(=O)C1=C(O)c2sccc2N(C)S1(=O)=O,5.7,0.7,-2.2,i,8,-3,-4.0
COc1ccccc1C1CCN(Cc2ccc3ccccc3c2)CC1,0.4,0.64,-6.3,i,5,-85,-2.2
O=C(Cn1ccc(NC(=O)OCc2ccccc2)nc1=O)NCc1ccccn1,1.3,0.79,6.4,i,-9,0,3.7
CC(C)NC(=O)N(C)C[C@@H]1Oc2ccc(NC(=O)Nc3ccc(C(F)(F)F)cc3)cc2CC(=O)N([C@H](C)CO)C[C@@H]1C,1.3,nt,0.1,i,-2,1,-3.2
O=C(NCc1cccs1)C1CCCN(S(=O)(=O)c2cnc[nH]2)C1 (centres undefined),7.1,0.76,nt,i,2,nt,2.2
CCOc1cc(-c2noc(CCC(=O)Nc3cccnc3)n2)ccc1OC,3.3,0.68,4.8,nt,0,-3,-1.3
COC(=O)c1sccc1NC(=O)Nc1cccc(Cl)c1Cl,0.5,0.67,-7.4,nt,2,-7,-0.1
Cc1ccc(-c2nnc(SC(C)C(=O)NCC3CCCO3)nc2-c2ccc(C)cc2)cc1 (centres undefined),2.0,0.61,2.3,i,1,8,1.0
CCCCN=C1N/C(=C\c2ccco2)C(=O)N1c1ccccc1,-2.8,nt,-4.8,nt,1,57,3.5
CC1(C)C2CCC1(C)C(OCCNCCOC(=O)Nc1ccccc1)C2 (centres undefined),3.3,0.71,-4.9,i,0,-12,1.0
COc1ccc(C2C(C#N)=C(N)OC3=C2C(=O)CC(C)(C)C3)c([N+](=O)[O-])c1OC (centres undefined),5.5,0.72,-3.7,nt,0,-1,-8.1
CC(=O)C1=C(O)C(=O)N(C2CCCCC2)C1c1ccccc1 (centres undefined),3.8,0.68,-3.3,nt,0,15,0.3
Cc1c(Cl)cn2c(=O)cc(CN3CCN(c4ccccc4)CC3)nc2c1Cl,2.1,0.67,3.6,i,-1,0,-5.2
CCn1c(O)c(C(C#N)=C2N=c3ccccc3=N2)c2ccccc21,4.7,0.69,1.8,nt,9,1,2.5
CCOC(=O)c1ccc(OC)c(OC)c1Cl,5.8,0.62,0.6,i,-3,-4,-6.5
O=c1c2cc(NC(=S)N3CCCCCC3)ccc2nc2n1CCCCC2,1.0,0.69,-3.9,nt,-11,10,-2.5
CCCCS(=O)c1snnc1C (centres undefined),-1.4,0.69,-1.7,i,2,-2,3.3
CCc1cc(=O)oc2c(CNCc3ccc(OC)cc3OC)c(O)c(Cl)cc12,i,0.65,2.0,i,-1,-5,-0.3
C=CCn1c(Cc2cccs2)nnc1SCC(=O)Nc1ccc(OC)c(OC)c1,-0.1,0.66,1.0,nt,4,-8,-2.4
Cc1[nH]c2ccc(C(=O)NCCCN3CCCC3)cc2c1C,2.7,0.72,2.3,i,-6,15,4.1
# Continued:
SMILES,UCH37 DUB inh,E coli growth,LANA-H2A inh,FGF22 binding,B2AR ag,ALR H2O2 inh,HNF4A DNA FP
COc1ccc(-n2nc(C(=O)NCC(=O)NCCCN3CC(C)CC(C)C3)c3ccccc3c2=O)cc1Cl (centres undefined),-2.8,0.68,6.8,i,12,9,3.4
CCCN(CC(=O)Nc1ccccc1C)C(=O)c1ccc(N2CCCCCC2)c([N+](=O)[O-])c1,-2.4,0.75,-0.1,i,-6,-1,-0.9
CCCNC(=O)c1nn2cc(Br)cnc2c1Cl,2.0,0.67,0.8,i,-18,-5,-2.9
Cc1c(NC(=O)c2cc(-c3ccccc3)on2)c(=O)n(-c2ccccc2)n1C,-1.0,0.69,-2.0,i,6,3,1.0
CCCC(=O)Nc1c(-c2ccccc2)c(=O)c(C)nn1-c1ccccc1,6.9,0.69,-0.3,i,0,0,2.5
O=C(CSc1ncnc2c1oc1ccccc12)N1CCN(c2ccccc2)CC1,0.2,0.75,4.2,nt,-23,3,-0.7
Cn1c(Cn2c(C(F)(F)F)nc3ccccc32)nc2ccccc21,3.7,0.83,4.4,nt,-3,nt,-0.5
O=C(Nc1cccc(Cl)c1)c1cc(F)cc2c1OCOC2,-6.0,0.65,4.6,i,-3,3,-4.1
CC1(C)Cc2ccccc2C(C(=O)c2ccccc2)=N1,-0.1,0.69,-1.9,i,-2,-1,-0.8
O/N=C(\Cn1ccnc1)c1ccccc1,nt,nt,nt,i,-4,nt,0.8
CC(=O)Nc1ccc(NC(=O)C(C)OC(=O)CCCN2C(=O)c3cccc4cccc(c34)C2=O)cc1 (centres undefined),nt,nt,-12,nt,12,-4,-4.0
Cc1nnc(N/N=C/c2ccco2)n1N,nt,nt,0.2,i,6,-10,1.2
O=C(c1ccco1)N1CCCN(Cc2nc(Cc3ccccc3)no2)CC1,0.3,0.69,-1.1,i,4,6,-0.8
CCN1CCCC1CNC(=O)c1cc([N+](=O)[O-])c(N(C)C)cc1OC (centres undefined),3.5,0.67,-7.4,i,-6,-13,-2.9
CC1CC(C)CN(S(=O)(=O)N2CCC(C(=O)NCc3ccco3)CC2)C1 (centres undefined),-1.8,0.7,-1.0,i,-1,4,3.4
COc1ccc(OC)c(N(CC(=O)N2CCCCC2)S(=O)(=O)c2ccc(OC)c(OC)c2)c1,2.2,0.71,1.7,nt,4,-10,-1.9
CC(C)CN(C(=O)COC(=O)c1ccc2c(c1)OCO2)c1c(N)n(Cc2ccccc2)c(=O)[nH]c1=O,0.4,0.68,2.0,i,-1,-11,1.0
O=C(C(NS(=O)(=O)c1cccs1)c1ccccc1)N1CCN(c2ccccc2F)CC1 (centres undefined),3.2,0.71,-6.8,nt,-20,-1,0.0
NS(=O)(=O)c1ccc(CCN2C(=O)CCC2=O)cc1,3.5,0.66,-0.2,i,-7,3,0.4
CCOc1ccc(NC(=O)C2CCCN2S(=O)(=O)c2ccc3c(c2)C(C)(C)C(=O)N3C)cc1 (centres undefined),5.6,0.73,-6.3,i,-3,-3,-1.4
Cc1ccccc1-n1c(SCC(=O)N2CCOCC2)nc(O)cc1=O,4.9,0.67,-9.9,i,0,0,-1.0
O=C(COC(=O)/C=C/c1ccc(Cl)cc1)NCCc1ccccc1,1.0,0.73,-1.7,i,1,10,-3.5
N#Cc1ccc(-c2nc3ccc(Br)cc3c(=O)n2O)cc1,4.3,0.65,-1.6,i,6,-1,-2.0
CCOc1ccc(/C=N/NC(=O)c2cc(-c3ccco3)nc3ccccc23)cc1,nt,nt,-0.6,nt,-1,14,5.5
Cc1ccc(C2(c3noc(CN(C)CC4CCCCO4)n3)CCCC2)cc1 (centres undefined),3.0,0.66,1.3,i,9,-3,-0.7
O=C(NC1CC1)C1CCCN(C(=O)Nc2ccc(F)cc2)C1 (centres undefined),3.8,0.69,3.2,nt,-4,-2,-1.3
COC(=O)c1cc2sccc2n1CC(=O)Nc1cc(OC)cc(OC)c1,1.3,0.69,6.2,i,3,-2,1.4
O=C(OCCOc1ccccc1)c1cccc(S(=O)(=O)N2CCOCC2)c1,3.6,0.65,-4.1,i,5,nt,2.8
O=C(Oc1cccc(OC(=O)N2CCCCC2)c1)N1CCCCC1,-4.1,0.68,-3.8,i,8,-18,-4.0
